# Mtb H37Rv: Mycobacterium tuberculosis H37Rv growth inhibition, cell based, confirmatory dose response (AID 1949); actives 1.6% (n = 100,000); inhibition, % at 10 µg/mL, or IC50 in µg/mL where a hit was titrated; most inactive calls were filed without a number and no value below 0 was filed;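 active = confirmed in a dose series; inconclusive = about 50% or more but not retested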;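 note: bacteria grown 7 days with compound before Alamar blue readout; 0% = untreated bacteria and 100% = reference antibiotic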
# Numbers without * were called inactive; i = inactive; ? = inconclusive. These rows are one share of the data, so the mix of outcomes need not match the whole.
Molecule | Mtb H37Rv
Cc1ccc(NC(=O)CCCc2ccccc2)c(Cl)c1 | i
FC(F)(F)c1cc(-c2ccco2)nc(NCc2ccco2)n1 | 1.1%
Cc1ccc(OCc2nnc(SCC(=O)Nc3c(Cl)cc(Cl)cc3Cl)n2C)cc1 | i
O=C(CN1CCOCC1)NC1CCCCC1 | i
Cc1nnc(SCC2=NN(c3nc4ccccc4[nH]3)C(=O)C2)s1 | i
CCCCC(=O)Nc1nnn(CCC)n1 | 18.5%
CCC(=O)Nc1ccccc1NC(=O)CC | 3.1%
COc1ccc(N2CCN(CC(O)COCC3COc4ccccc4O3)CC2)cc1 (stereo not given) | 0.4%

# (cont.)
Molecule | Mtb H37Rv
C=CCN(c1ccc(C(=O)Nc2ccc(C(=O)OCC)cc2)cc1)S(C)(=O)=O | i
CN(C)C(=O)COc1ccc2cc(-c3ccccc3)c(=O)oc2c1 | i
CCOC(=O)C1=CN(C)C=C(C(=O)OCC)C1c1ccc(OC)c(Br)c1 | i
CC1=Nc2ccccc2NC(=O)C1Sc1nc2ccccc2s1 (stereo not given) | 0.7%
O=C(Nc1ccc(NC(=O)c2cccs2)cc1)c1ccco1 | i
CC(C(=O)Nc1ccc(Cl)cn1)(c1ccccc1)c1ccccc1 | i
COc1ccccc1NC(=O)c1ccc(-c2nnc(-c3ccccc3)o2)cc1 | i
CCCOc1ccc(C(CC(=O)c2ccc(C)cc2)S(=O)(=O)c2ccc(C)cc2)cc1 (stereo not given) | i

# (cont.)
Molecule | Mtb H37Rv
COc1cccc(C(=O)Oc2ccc(C(C)=O)cc2)c1 | 11.1%
COc1ccc(CNC(=O)C2CCN(S(=O)(=O)c3ccc(C)cc3)CC2)cc1 | i
COC(=O)CN(n1cnnc1)S(=O)(=O)c1ccccc1 | 0.4%
COc1ccc(-c2cccc(C(=O)Nc3c(C)n(C)n(-c4ccccc4)c3=O)c2)cc1 | i
CCN(CC)CC(=O)Nc1ccc([N+](=O)[O-])cc1Br | i
COc1cccc(OC)c1C(=O)Nc1ccc(N2CCN(C(C)=O)CC2)cc1 | i
Cc1ccc(C(CC(=O)N2CCOCC2)c2ccccc2)c(O)c1C (stereo not given) | i
Cc1cc(-c2ccccc2)nc(Sc2ccc(C=O)o2)n1 | 3.6%

# Continuation:
Molecule | Mtb H37Rv
Cc1sc(NC(=O)C2CCCO2)c(C(N)=O)c1-c1ccccc1 (stereo not given) | i
CCc1cc2c(C)cc(=O)oc2c(CN(C(C)C)C(C)C)c1O | 0.3%
O=S(=O)(c1cc(-c2nc3ccccc3s2)ccc1Cl)N1CCCC1 | 2.0%
O=S(=O)(Oc1c(Cl)cccc1Cl)c1ccc(Br)cc1 | 4.2%
O=C(CN1C(=O)c2ccccc2C1=O)Oc1cccc(-c2cnc3ccccc3n2)c1 | 1.4%
Cc1ccc(S(=O)(=O)NC(C)C(=O)N2CCN(c3cccc(Cl)c3)CC2)cc1 (stereo not given) | i
O=C(Cc1ccccc1)Nc1sc2c(c1C(=O)O)CCCC2 | i
Cc1c(CCC(=O)O)c(=O)oc2cc(OCc3cccc(F)c3)ccc12 | i

# More structures follow.
Molecule | Mtb H37Rv
CCCNC(=O)c1ccccc1N(Cc1ccccc1)S(=O)(=O)c1ccc(OC)cc1 | i
COc1cc(C(=O)Nc2cccc(Cl)c2C)cc(OC)c1OC | i
CCCc1ccc(OCc2ccc(C(=O)NCc3ccco3)o2)c(OC)c1 | 1.5%
Clc1ccc(SCCOCCN2CCCCC2)cc1 | i
COc1ccccc1NC(=S)N1CCC(C(N)=O)CC1 | i
CCOC(=O)c1c(C)n(C)c2c1cc(OC(=O)C(C)C)c1ccccc12 | i
O=C1CC(c2ccncc2)c2cc3c(cc2N1)OCCO3 (stereo not given) | i
COc1ccccc1N1CCN(c2nc(-c3ccccc3O)nc3ccccc23)CC1 | 2.2%

# The list continues.
Molecule | Mtb H37Rv
CCc1c(C)sc(NC(=O)c2ccco2)c1C(=O)OC(C)C | 2.6%
CCc1cc2c(NC(CC(C)C)C(=O)O)ncnc2s1 (stereo not given) | i
Clc1ccc(-c2csc3ncnc(NCCN4CCOCC4)c23)cc1 | i
CCOC(=O)c1c(-c2ccc(C)cc2)csc1NC(=S)Nc1ccccc1 | i
Cc1ccc(-n2c3c(cc(C(=O)NCC4CCCO4)c2=O)C(=O)CCC3)cc1 (stereo not given) | 3.7%
O=C(O)C1CC(=O)N(c2ccccc2O)C1 (stereo not given) | i
C=CCN(CC=C)C(=O)Nc1cc(Cl)ccc1OC | i
O=C(CCCN1C(=O)c2ccccc2C1=O)NCCCc1ccccc1 | i

# Further compounds
Molecule | Mtb H37Rv
CC(=O)c1c(N2CCOCC2)nc(=S)n(-c2cc(C)ccc2C)c1C | i
CC(=O)Nc1ccc2nc(SCC(=O)Nc3ccc(N4CCOCC4)c(Cl)c3)sc2c1 | i
Cc1cc(C)c(S(N)(=O)=O)c(C)c1N(C)S(=O)(=O)c1ccccc1 | i
CS(=O)(=O)N(Cc1ccccc1Cl)c1ccc(C(=O)Nc2ccc(Br)cc2F)cc1 | 0.5%
S=C(NCc1cccnc1)NC12CC3CC(CC(C3)C1)C2 | i
Cc1cc(C)c(S(=O)(=O)N(CC(=O)Nc2ccc(C(N)=O)cc2)Cc2ccccc2)c(C)c1 | i
CCC(Sc1nc2ccccc2o1)C(=O)Nc1nnc(C)s1 (stereo not given) | 0.75µg/mL*
O=C(COc1ccc(NC(=O)c2ccc(Cl)c(Cl)c2)cc1)c1ccc(F)cc1 | i

# (cont.)
Molecule | Mtb H37Rv
Cc1cc(Br)ccc1NC(=O)c1ccc(-c2cccc(Cl)c2Cl)o1 | i
O=C(CCc1ccccc1)Nc1ccc2c(c1)C(=O)c1ccccc1-2 | i
O=C(CSc1nc2ccc([N+](=O)[O-])cc2s1)c1ccc2c(c1)Cc1ccccc1-2 | i
COc1cccc(Nc2nc(-c3sc(C)nc3C)cs2)c1 | 5.8%
Oc1ccc(N2CCN(C(=S)NC3CCCC3)CC2)cc1 | i
CC(C)N(Cc1nc(-c2ccc(Cl)cc2)no1)C(=O)c1ccc(F)cc1 | i
COc1cccc(C(=O)COc2cc3oc(=O)c4c(c3cc2Cl)CCC4)c1 | i
CC(C)(C)c1ccc(-c2nc3ccccc3c(=O)[nH]2)cc1 | i

# Following part:
Molecule | Mtb H37Rv
COc1ccc(CC(=O)Nc2nnc(CC(C)C)s2)cc1OC | i
CCCCC(=O)Nc1ccc2oc(-c3ccccc3Br)nc2c1 | 2.2%
Cc1cc(OCC(O)CNC(C)c2ccccc2)ccc1C(C)C (stereo not given) | 5.52µg/mL*
S=C(NCCc1ccc(Cl)cc1)Nc1ccc(Oc2ccccc2)cc1 | ?
O=C(Cc1cccs1)N1CCN(C(c2ccccc2)c2ccccc2)CC1 | i
Cc1ccc(-c2nc3ccccc3s2)cc1NC(=S)NC(=O)CSc1ccc(Cl)cc1 | i
O=C(O)c1ccc(NS(=O)(=O)c2cccc3ccccc23)cc1 | i
COc1ccc(NC(=S)NCc2ccccn2)cc1OC | i

# Going on with the list:
Molecule | Mtb H37Rv
CS(=O)(=O)N(CC(=O)NCC1CCCO1)c1ccc(Cl)cc1 (stereo not given) | i
O=C(CSc1nc2ccccc2o1)c1ccc2ccccc2c1 | i
OC(COc1ccc2c(c1)CCC2)CN1CCCC1 (stereo not given) | i
CCC(C)c1ccc(NC(=S)Nc2cc(C(=O)OC)ccc2C)cc1 (stereo not given) | i
COc1cc(C(=S)N2CC(C)OC(C)C2)ccc1OCc1ccc(C)cc1 (stereo not given) | i
Cc1cc(C)nc(Nc2ccc(S(=O)(=O)Nc3ccccn3)cc2)n1 | i
Cc1ccc(N(CC(N)=O)S(=O)(=O)c2ccc(Cl)cc2)cc1 | i
COc1cc(S(=O)(=O)Nc2ccccc2)ccc1NC(=O)c1ccc(Cl)cc1Cl | i

# Going on with the list.
Molecule | Mtb H37Rv
O=C(c1c(F)c(F)c(F)c(F)c1F)N1CCC(Cc2ccccc2)CC1 | i
CCN(c1ccccc1)S(=O)(=O)c1ccc(NC(=O)c2sc3ccccc3c2Cl)cc1 | i
Cc1cc(C)nc(NC(=O)c2ccc(COc3ccccc3Cl)cc2)c1 | ?
COc1ccc(NC(=O)c2c(NC(=O)CN3CCCC3)sc3c2CCC(C(C)(C)C)C3)c(OC)c1 (stereo not given) | 2.7%
CCc1ccc(NC(=O)C2CCN(C(=O)c3cc(OC)cc(OC)c3)CC2)cc1 | i
CCCCNS(=O)(=O)c1ccc(NS(=O)(=O)Cc2ccccc2)cc1 | i
CC(Oc1cccc(Cl)c1)C(=O)Nc1ccccc1Oc1ccccc1 (stereo not given) | 6.2%
CCOC(=O)c1ccc(NC(=S)N2CCN(Cc3ccccc3)CC2)cc1 | i

# More structures:
Molecule | Mtb H37Rv
C=C1C2(C(=O)N3CCc4ccccc43)CCC(C2)C1(C)C (stereo not given) | 4.7%
CSc1ccc(Cl)c(C(=O)Nc2nc(C)cs2)c1 | 9.2%
COc1cc(NC(=O)c2ccc(COCC(F)(F)F)o2)cc(OC)c1OC | i
CS(=O)(=O)N(CC(=O)Nc1ccc(S(=O)(=O)N2CCCCC2)cc1)c1cccc(F)c1 | i
CCOc1ccc(S(=O)(=O)NCCc2ccccc2)c2ccccc12 | 6.1%
CCCCC(=O)Nc1ccc(C(=O)Nc2ccc(Br)cc2)cc1 | i
Cc1c(NC(=O)CCc2ccccc2)ccc([N+](=O)[O-])c1C | i
CC(C)(C)c1ccc(C(=O)NC(=S)Nc2cccnc2)cc1 | i

# 6 compounds out of the list, ordered by length of the SMILES, falling:
Molecule | Mtb H37Rv
COc1cc(NC(=O)c2ccc(COCC(F)(F)F)o2)cc(OC)c1OC | i
CCOC(=O)c1ccc(NC(=S)N2CCN(Cc3ccccc3)CC2)cc1 | i
Cc1c(NC(=O)CCc2ccccc2)ccc([N+](=O)[O-])c1C | i
CCOc1ccc(S(=O)(=O)NCCc2ccccc2)c2ccccc12 | 6.1%
CCCCC(=O)Nc1ccc(C(=O)Nc2ccc(Br)cc2)cc1 | i
CSc1ccc(Cl)c(C(=O)Nc2nc(C)cs2)c1 | 9.2%

# Carrying on:
Molecule | Mtb H37Rv
O=C(Nc1ccc(Cl)cc1C(=O)N1CCCCC1)c1ccco1 | 4.7%
CC1(C)CC(=O)CC(C)(C)N1OC(=O)c1ccccc1 | i
CC(=O)CCc1oc2ccc(C)cc2c1-c1ccc(C)o1 | 4.7%
CC(=O)Nc1ccc(S(=O)(=O)N(C)CCOCc2ccccc2)cc1 | i
O=c1oc2ccccc2c(NCCC2=CCCCC2)c1[N+](=O)[O-] | 3.3%
CCOC(=O)c1cc(C)sc1NC(=O)CC1Sc2ccccc2NC1=O (stereo not given) | i
Cc1ccc(S(=O)(=O)N(CC(=O)Nc2ccccc2C(N)=O)c2cccc(Cl)c2C)cc1 | 2.1%
O=C(c1ccc(S(=O)(=O)N2CCCCCC2)cc1)N1CCN(c2cccc(Cl)c2)CC1 | i

# (listing goes on)
Molecule | Mtb H37Rv
COc1ccc(S(=O)(=O)N2CCN(c3cccc(C(F)(F)F)c3)CC2)cc1C(C)C | i
O=C(NCCN1CCCC1)c1cccc(Cl)c1 | i
Cc1nc2cc(NS(=O)(=O)c3cccc(F)c3)ccc2s1 | i
CCOC(=O)C1CCN(C(=O)COc2ccc(S(=O)(=O)N3CCCc4ccccc43)cc2)CC1 | i
Cc1ccc(-c2csc3nc(SCC(=O)O)n(-c4ccccc4)c(=O)c23)cc1 | i
N#CC1C(=O)NC(N2CCN(Cc3ccc4c(c3)OCO4)CC2)=NC12CCCCC2 (stereo not given) | i
COc1ccc(-c2c(C)oc3cc(OC(=O)C(C)(C)C)ccc3c2=O)cc1 | i
O=S(=O)(Nc1cccnc1)c1ccc(-c2ccc(Cl)cc2)cc1 | i

# Carrying on.
Molecule | Mtb H37Rv
Cc1cccc(-c2nnc(SCC(=O)NCCc3ccccc3)n2-c2ccccc2)c1 | i
COc1ccc(CCCC(=O)Nc2cc(C)ccc2C)cc1C | 0.4%
O=C(Nc1ccc([N+](=O)[O-])cn1)C1CCCCC1 | 2.4%
Cc1cccc(NCC(O)Cn2cnc3c2c(=O)n(C)c(=O)n3C)c1 (stereo not given) | i
CC(C)CNS(=O)(=O)c1ccc(CCC(=O)N2CCC(C(N)=O)CC2)cc1 | i
CN(CC(=O)NCc1ccncc1)S(=O)(=O)c1ccccc1 | i
O=C(CCC1CCCCC1)N1CCN(c2ccccc2F)CC1 | i
Cc1ccc(OCCCNCCN)c(Br)c1 | i

# (continued)
Molecule | Mtb H37Rv
CCc1cc(Br)ccc1NC(=O)CN1C(=O)C2C3CCC(C3)C2C1=O (stereo not given) | i
Cc1ccccc1C(=O)NCc1nnc(SCC(=O)N2CCN(c3ccccc3)CC2)n1C | i
Cc1ccc2oc(=O)n(CCOc3ccc(Cl)cc3)c2c1 | i
CCN(c1cccc(C)c1)S(=O)(=O)c1ccc(C(C)(C)C)cc1 | 6.8%
O=C(NN1CCOCC1)c1cccc(F)c1 | i
Cc1cc(OCC(=O)N2CCCCC2)ccc1Cl | i
COc1ccc(NC(=O)COc2ccc(Cl)cc2Cl)c(OC)c1 | i
C=CCn1c(SCC(=O)c2cc(C)n(CCOC)c2C)nc2sc3c(c2c1=O)CCC3 | i

# More records:
Molecule | Mtb H37Rv
Cc1ccc(C(CC(=O)N2CCCCC2)c2ccco2)cc1 (stereo not given) | 1.8%
Cc1ccc(-c2nc(S(=O)(=O)c3ccc(Cl)cc3)c(N3CCOCC3)o2)cc1 | 1.6%
COc1ccc(OCCCC(=O)Nc2cccc(C(F)(F)F)c2)cc1 | i
Cc1cc(C)cc(C(=O)NC(=S)Nc2ccccc2C(C)C)c1 | 3.8%
CCOC(=O)c1sc2ncn(/N=C/c3ccccc3OC(F)F)c(=O)c2c1C | i
CCOc1ccc(N(CC(=O)Nc2ccccc2Cl)S(=O)(=O)c2ccc(SC)cc2)cc1 | 3.9%
CC(C)(C)NC(=O)c1ccccc1NC(=O)c1ccc2c(c1)OCO2 | i
COC(=O)c1ccc(-c2ccc(-c3nc4ccccc4c(=O)[nH]3)o2)cc1 | i

# Continued:
Molecule | Mtb H37Rv
COc1ccc(NC(=O)Cc2ccc(C)cc2)cc1Cl | i
COC(=O)c1ccc(NC(=S)Nc2c(C)n(C)n(-c3ccccc3)c2=O)cc1 | i
CC(=O)Nc1sc(C)c(C)c1C(=O)NC1CCCCC1 | 2.1%
CCc1cc(I)ccc1NC(=S)NC(C)=O | 5.5%

# Screening data (PubChem)
